Assay outcomes: PubChem BioAssay, Broad Institute
Vaccinia inh: blocks a specific stage of Vaccinia orthopoxvirus infection, primary screen, cell-based, single point; Vaccinia-infected cells, mCherry/Venus stage reporter fluorescence; stronger effect = lower value; some inactives read as strong as hits; activity change (mCherry), % (concentration not given with the values); 89,000 tested, 0.01% active; AID 1053133, 2014;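 active = mCherry past -33% and 40 or more points under the early reporter, replicates agreeing; inconclusive = past -33% without that gap or agreement; tested in A549 cells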;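 note: scaled between vehicle wells and reference inhibitor wells; 23 nL library stock went into each well; one replicate is shown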
Vaccinia inh Venus: recorded beside Vaccinia inh, whose call it bears; activity change (Venus), %; measured here: Venus reporter, other viral stage;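 negative = less Venus signal; first of two replicates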
Numbers without * were called inactive; ? = inconclusive; · = not tested or not shown. This is a subset; the hit share may differ from the screen's.

mol | Vaccinia inh | Vaccinia inh Venus
C[C@@H]1CN([C@H](C)CO)C(=O)c2cccc(NC(=O)NC3CCCCC3)c2O[C@@H]1CN(C)Cc1ccccc1 | 0.1 | -0.9
Cc1ccc(-c2cnc3c(c2)C(=O)N([C@H](C)CO)C[C@@H](C)[C@H](CN(C)CC2CCCCC2)O3)cc1 | ? | ·
C[C@H]1CN([C@@H](C)CO)S(=O)(=O)c2ccc(C#CC3CC3)cc2O[C@H]1CN(C)C(=O)c1cccc(F)c1 | ? | ·
CO[C@@H]1CN(C)C(=O)c2ccc(NS(=O)(=O)CC(F)(F)F)cc2OC[C@@H](C)N(Cc2nccs2)C[C@@H]1C | 6.9 | 7.8
CC(C)CC#Cc1ccc2c(c1)O[C@@H](CN(C)S(=O)(=O)c1ccc(F)cc1)[C@H](C)CN([C@@H](C)CO)S2(=O)=O | -26.9 | -21.5
C[C@H](CO)N1C[C@H](C)[C@H](CN(C)C(=O)NC2CCCCC2)OCCCC[C@H](C)Oc2ccc(NC(=O)c3ccncc3)cc2C1=O | 19.4 | 12.3
O=C(C[C@@H]1C=C[C@H](NC(=O)CCN2CCCCC2)[C@@H](CO)O1)NCc1ccc(Cl)c(Cl)c1 | -10.4 | 3.6
C[C@@H]1CN([C@H](C)CO)C(=O)c2cc(C#Cc3ccccn3)cnc2O[C@H]1CN(C)C(=O)c1cnccn1 | 24.0 | 33.5
C/C=C/c1ccc([C@@H]2[C@H](CO)N(CCC(F)(F)F)C23CN(C(=O)COC)C3)cc1 | 4.3 | 6.8
CC(=O)N1[C@H](CO)[C@H](c2ccc(C3=CCCCC3)cc2)[C@@H]1CNC(=O)CC1CC1 | -17.9 | -9.5
Cc1ccc(S(=O)(=O)N(C)C[C@@H]2Oc3cc(C#Cc4ccccc4)ccc3S(=O)(=O)N([C@H](C)CO)C[C@H]2C)cc1 | -3.9 | -14.5
C[C@H](CO)N1C[C@H](C)[C@H](CN(C)Cc2cccc(C(F)(F)F)c2)Oc2ncc(/C=C/c3ccccc3)cc2C1=O | ? | ·
C[C@H]1CN([C@@H](C)CO)C(=O)c2cc(NC(=O)Nc3cccc4ccccc34)ccc2O[C@@H]1CN(C)C(=O)Nc1ccccc1 | 0.8 | 4.3
COC(=O)C(CC#Cc1ccc2c(c1)[C@]1(C(=O)N2)[C@H](C(=O)N2CCCCCCC2)[C@H]2C(=O)O[C@H](c3ccccc3)[C@H](c3ccccc3)N2[C@@H]1c1ccc(OCCO)cc1)C(=O)OC | 0.8 | 3.5
[N-]=[N+]=NCCCNC(=O)Nc1ccccc1 | 9.6 | 10.3
O=C(C1CC1)N1CC(=O)N2[C@H](C1)[C@@H](c1ccc(-c3ccccc3F)cc1)[C@@H]2CO | ? | ·
COc1ccc(NC(=O)Nc2ccc3c(c2)C(=O)N([C@@H](C)CO)C[C@@H](C)[C@@H](CN(C)Cc2ccc(C(=O)O)cc2)O3)cc1 | -0.9 | 11.4
CN1C(=O)c2cc(NS(=O)(=O)c3ccccc3F)ccc2OC[C@@H]2O[C@@H](CC(=O)NC3Cc4ccccc4C3)CC[C@H]21 | -5.3 | -3.6
C[C@@H]1CCCCO[C@H](CN(C)Cc2ccc(C(=O)O)cc2)[C@@H](C)CN([C@@H](C)CO)C(=O)c2cc(NC(=O)CCC(F)(F)F)ccc2O1 | 14.4 | 16.6
Cc1noc(C)c1S(=O)(=O)N(C)C[C@H]1OCCCC[C@@H](C)Oc2ccc(NC(=O)C3CCCCC3)cc2C(=O)N([C@H](C)CO)C[C@@H]1C | 19.4 | 3.0

Next section, starting with the last 4 of the part before.
mol | Vaccinia inh | Vaccinia inh Venus
COc1ccc(NC(=O)Nc2ccc3c(c2)C(=O)N([C@@H](C)CO)C[C@@H](C)[C@@H](CN(C)Cc2ccc(C(=O)O)cc2)O3)cc1 | -0.9 | 11.4
CN1C(=O)c2cc(NS(=O)(=O)c3ccccc3F)ccc2OC[C@@H]2O[C@@H](CC(=O)NC3Cc4ccccc4C3)CC[C@H]21 | -5.3 | -3.6
C[C@@H]1CCCCO[C@H](CN(C)Cc2ccc(C(=O)O)cc2)[C@@H](C)CN([C@@H](C)CO)C(=O)c2cc(NC(=O)CCC(F)(F)F)ccc2O1 | 14.4 | 16.6
Cc1noc(C)c1S(=O)(=O)N(C)C[C@H]1OCCCC[C@@H](C)Oc2ccc(NC(=O)C3CCCCC3)cc2C(=O)N([C@H](C)CO)C[C@@H]1C | 19.4 | 3.0
CN1C(=O)c2cc(NC(=O)NC3CCCC3)ccc2OC[C@@H]2O[C@@H](CC(=O)NCC3CC3)CC[C@H]21 | 6.2 | 3.7
CCC(=O)Nc1ccc2c(c1)C(=O)N(C)[C@H]1CC[C@H](CC(=O)Nc3ccc(C(C)C)cc3)O[C@@H]1CO2 | 3.8 | 4.4
CS(=O)(=O)N1CC(=O)N2[C@H](CO)[C@@H](c3ccc(Br)cc3)[C@H]2C1 | -29.0 | -21.6
O=C(C[C@@H]1CC[C@@H](NS(=O)(=O)c2ccc(F)cc2)[C@H](CO)O1)N1CCN(c2ccccc2)CC1 | -1.7 | 1.8
C[C@H]1CN([C@@H](C)CO)C(=O)Cc2cc(NC(=O)Nc3ccccc3)ccc2O[C@@H]1CN(C)C(=O)Nc1cccc2ccccc12 | 23.4 | 15.4
Cc1noc(C)c1NC(=O)Nc1ccc2c(c1)CC(=O)N([C@@H](C)CO)C[C@H](C)[C@@H](CN(C)C(=O)Nc1ccccc1)O2 | -5.6 | -2.2
COCC#Cc1cnc2c(c1)C(=O)N([C@H](C)CO)C[C@H](C)[C@@H](CN(C)C(=O)C1CCC1)O2 | 9.9 | 8.5
C/C=C/c1ccc2c(c1)O[C@@H](CN(C)C(=O)CN1CCOCC1)[C@@H](C)CN([C@H](C)CO)S2(=O)=O | 8.3 | 4.1
C[C@@H]1CCCCO[C@H](CN(C)Cc2ccc(Cl)c(Cl)c2)[C@@H](C)CN([C@@H](C)CO)C(=O)c2cc(NC(=O)CCC(F)(F)F)ccc2O1 | ? | ·
CN(C)C(=O)c1ccc(-c2ccc([C@H]3[C@H](CO)N4C(=O)CN(C(=O)C5CCCC5)C[C@@H]34)cc2)cc1 | 4.8 | 3.6
COc1ccc(NC(=O)Nc2ccc3c(c2)C(=O)N([C@@H](C)CO)C[C@@H](C)[C@@H](CN(C)Cc2ccccc2)O3)cc1 | -29.1 | -15.4
Cc1noc(C)c1S(=O)(=O)Nc1ccc2c(c1)CC(=O)N([C@H](C)CO)C[C@@H](C)[C@H](CN(C)Cc1ccc(C(=O)O)cc1)O2 | 3.6 | 10.0
Cc1ccc(S(=O)(=O)N(C)C[C@H]2Oc3ccc(NS(=O)(=O)c4ccc(Cl)cc4)cc3CC(=O)N([C@@H](C)CO)C[C@H]2C)cc1 | ? | ·
CCC(=O)N(C)C[C@@H]1Oc2ncc(Br)cc2C(=O)N([C@@H](C)CO)C[C@H]1C | 3.3 | -0.1
CO[C@H]1CN(C)C(=O)c2ccc(NC(=O)c3cnccn3)cc2OC[C@H](C)NC[C@@H]1C | 3.0 | -5.1
COc1ccc(CN(C)C[C@@H]2Oc3ccc(NS(=O)(=O)c4ccc(F)cc4)cc3C(=O)N([C@H](C)CO)C[C@@H]2C)cc1 | -1.0 | -6.0
COc1ccc(CN(C)C[C@@H]2Oc3ccc(NS(=O)(=O)c4ccccc4)cc3CC(=O)N([C@H](C)CO)C[C@H]2C)cc1 | -1.6 | -1.5
CCCC(=O)N1CC2(CCN(C(=O)NC(C)C)CC2)c2c([nH]c3cc(OC)ccc23)[C@H]1CO | 31.7 | 12.7
CC(C)NC(=O)Nc1ccc2c(c1)C(=O)N([C@@H](C)CO)C[C@H](C)[C@H](CN(C)C(=O)c1ccncc1)OCCCC[C@@H](C)O2 | 16.1 | 13.0
C[C@@H]1CN([C@H](C)CO)C(=O)Cc2cc(NC(=O)Cc3ccccc3)ccc2O[C@H]1CN(C)C | 6.0 | 2.9

The list continues:
mol | Vaccinia inh | Vaccinia inh Venus
CO[C@H]1CN(C)C(=O)c2cc(NC(=O)c3cnccn3)ccc2OC[C@H](C)N(C)C[C@@H]1C | 2.0 | 7.9
O=S(=O)(N[C@H]1CC[C@@H](CCNS(=O)(=O)c2ccccc2Cl)O[C@@H]1CO)c1ccccc1 | -14.6 | -17.7
C[C@@H]1CN([C@@H](C)CO)C(=O)Cc2cc(NC(=O)Nc3ccccc3)ccc2O[C@H]1CN(C)Cc1ccccc1 | ? | ·
C[C@H]1CCCCO[C@H](CN(C)Cc2ccc3c(c2)OCO3)[C@@H](C)CN([C@@H](C)CO)C(=O)c2cc(NC(=O)Nc3ccc4c(c3)OCO4)ccc2O1 | ? | ·
CN1CCN(C(=O)C[C@@H]2C[C@@H]3c4cc(NC(=O)Cc5ccncc5)ccc4O[C@@H]3[C@H](CO)O2)CC1 | 1.9 | -1.9
N#C[C@@H]1[C@@H](c2ccc(C#CC3CC3)cc2)[C@@H](CO)N1C(=O)Cc1ccccn1 | -9.4 | 0.8
C[C@@H]1CN([C@H](C)CO)C(=O)c2cc(NC(=O)C3CCCCC3)ccc2O[C@@H](C)CCCCO[C@H]1CN(C)C(=O)c1ccccc1 | 9.1 | -17.1
O=C1CS(=O)(=O)C(c2cccc([N+](=O)[O-])c2)N1c1ccccc1 (stereo not drawn) | 23.9 | 17.1
C[C@H](CO)N1C[C@H](C)[C@H](CN(C)Cc2ccc(Cl)c(Cl)c2)Oc2ccc(NC(=O)Cc3ccccc3)cc2CC1=O | -30.2 | -24.7
CN1C(=O)c2cc(NC(=O)Cc3cccs3)ccc2OC[C@H]2O[C@H](CC(=O)NCC3CCCCC3)CC[C@H]21 | -10.6 | -5.6
O=C(C[C@H]1CC[C@@H]2[C@H](COC[C@@H](O)CN2C(=O)Nc2ccc(Cl)cc2)O1)N1CCCCC1 | -12.4 | -2.5
COc1ccc(NC(=O)N(C)C[C@H]2Oc3ccc(NS(=O)(=O)c4ccc(F)cc4)cc3CC(=O)N([C@@H](C)CO)C[C@H]2C)cc1 | -1.6 | -5.0
O=C([C@H]1[C@H](CO)[C@H]2Cn3c(cccc3=O)[C@H]2N1Cc1ccccc1)N1CCCCC1 | 2.0 | 5.5
O=C(C[C@H]1C[C@H]2c3cc(NC(=O)CC4CC4)ccc3O[C@H]2[C@H](CO)O1)NCCc1ccccc1 | 6.3 | 9.4
Cc1noc(C)c1S(=O)(=O)Nc1ccc2c(c1)CC(=O)N([C@@H](C)CO)C[C@@H](C)[C@H](CN(C)S(=O)(=O)c1ccccc1)O2 | 12.2 | 1.9
C[C@@H]1CCCCO[C@H](CN(C)C(=O)Cc2ccccc2)[C@H](C)CN([C@@H](C)CO)C(=O)c2cc(NS(=O)(=O)c3ccc(Cl)cc3)ccc2O1 | ? | ·
C/C=C/c1ccc([C@H]2[C@H](CO)N3C(=O)CN(C(=O)c4cnccn4)C[C@@H]23)cc1 | 14.5 | 10.2
COc1cccc(S(=O)(=O)N2C[C@@H](O)COC[C@H]3O[C@H](CC(=O)N4CCN(C)CC4)CC[C@@H]32)c1 | -6.2 | -8.6
O=C(Cc1ccccc1)N[C@H]1CC[C@H](CC(=O)N2CCCCC2)O[C@@H]1CO | 10.8 | 2.0
CCS(=O)(=O)N1CC(=O)N2[C@H](CO)[C@@H](c3ccc(C#CCC(C)C)cc3)[C@H]2C1 | 7.0 | -26.3

Further entries
mol | Vaccinia inh | Vaccinia inh Venus
Cn1cnc(S(=O)(=O)N[C@@H]2CC[C@H](CC(=O)NCC3CC3)O[C@H]2CO)c1 | -1.3 | -1.4
CC(=O)N1[C@H](CO)[C@H](c2ccc(-c3cccnc3)cc2)[C@@H]1CNC(=O)C1CCC1 | -9.0 | 0.6
CC(C)C(=O)Nc1ccc2c(c1)C(=O)N(C)[C@@H]1CC[C@@H](CC(=O)NCc3ccccc3)O[C@H]1CO2 | 0.1 | 5.1
CC(C)NC(=O)N1[C@@H](C#N)[C@H](c2ccc(-c3ccc(F)cc3)cc2)[C@@H]1CO | ? | ·
CC(C)NC(=O)N(C)C[C@H]1Oc2ncc(C#Cc3ccccc3F)cc2C(=O)N([C@@H](C)CO)C[C@@H]1C | 0.6 | -4.2
O=C(Nc1ccc(F)cc1)N[C@@H]1CC[C@@H](CCNS(=O)(=O)c2ccccc2F)O[C@@H]1CO | -9.9 | -10.9
CCC(=O)N1[C@H](CO)[C@@H](c2ccc(-c3ccc(C#N)cc3)cc2)C12CN(C(C)=O)C2 | -2.9 | -2.8
C[C@@H]1CCCCO[C@@H](CN(C)Cc2ccc(Cl)c(Cl)c2)[C@H](C)CN([C@@H](C)CO)C(=O)c2cc(NC(=O)NC3CCCCC3)ccc2O1 | -9.1 | -3.1
O=C(Nc1ccc(F)cc1)N[C@H]1CC[C@H](CCNC(=O)c2ccccc2F)O[C@@H]1CO | -6.5 | -0.8
C[C@@H]1CCCCO[C@@H](CN(C)C(=O)NC2CCCCC2)[C@@H](C)CN([C@@H](C)CO)C(=O)c2cc(NS(=O)(=O)c3ccc(F)cc3)ccc2O1 | -14.9 | -14.5
COc1ccc2c3c([nH]c2c1)[C@H](CO)N(C(=O)C1CCCC1)CC31CCN(Cc2cccc(F)c2)CC1 | ? | ·
CC(C)NC(=O)N(C)C[C@@H]1Oc2ccc(NC(=O)Nc3cccc4ccccc34)cc2CC(=O)N([C@@H](C)CO)C[C@@H]1C | 25.9 | 13.3
C[C@H]1CN([C@@H](C)CO)C(=O)c2cc(NS(=O)(=O)c3ccccc3)ccc2O[C@@H]1CN(C)Cc1ccc(C(=O)O)cc1 | 9.5 | 1.7
CCC(=O)N(C)C[C@@H]1Oc2ncc(C#CCC3CCCC3)cc2C(=O)N([C@H](C)CO)C[C@H]1C | 1.3 | -2.1
O=C(C[C@@H]1CC[C@H]2[C@@H](COC[C@@H](O)CN2Cc2nccs2)O1)NCc1ccccc1F | -0.9 | 5.9
C[C@H](CO)N1C[C@H](C)[C@@H](CN(C)Cc2ccccc2)Oc2ccc(NC(=O)C3CCCCC3)cc2C1=O | -4.2 | -0.5
